# Screens (PubChem BioAssay)
# Sa ugtP lethal – growth inhibition of ugtP-null S. aureus, primary screen, RN4220 ugtP deletion, OD600; growth inhibition, % (no concentration beside the values); 16 h; some inactives read as strong as hits; AID 1259309, 2017; 0.54% of 330,000 active;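 active means z-score under -3 and OD600 up to 0.15 on both plates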;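 further: plate controls were untreated wells for no effect and antibiotic for full effect; wells of about 80 µL received 100 nL stock; the first replicate is given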
# Mtb hypoxia inh – PubChem AID 1159583 | fluorescence inhibition, % (test concentration not listed) | M. tuberculosis hypoxia-regulated fluorescent reporter, fluorescence | 0.1% of 300,000 active;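 active means 35 to 45% if threefold the growth effect, above 45% if 1.5-fold the growth effect; inactive means the rest, general growth blockers included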;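 further: wells of about 50 µL received 100 nL stock; 0% = vehicle wells and 100% = reference inhibitor wells; whole bacteria with a GFP reporter of the hypoxia response; strong numbers were not always called active; many hits fall short of the cut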
# Autofluor counter – compound fluorescence in toxin protease inhibitor counterscreen. compound autofluorescence counterscreen, microsphere flow cytometry; stronger effect = higher value. fluorescence intensity (concentration not given with the values). 3.1% of 360,000 active;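 active means at least 3 SD above the mean of all compounds, about 16000 in these data; inconclusive means too few beads counted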;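 further: 100 nL of 1 mM stock went into each well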
# BJeLR viability – MLPCN primary cell-based screen for lethality selective to Ras in HRASV12 cells; BJeLR (HRASV12) viability, CellTiter-Glo ATP luminescence, 48 h; reference of the scale not given here; inhibition, % (test concentration not listed); 0.17% of 300,000 active; AID 1554, 2009;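 active means replicate mean above 50%; inconclusive means above 50% but judged a plate artefact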;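 further: 50 nL library stock added to about 25 µL; numbers are from one replicate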
# PrP UTR inh – inhibition of PrP 5' UTR reporter expression. cell-based PrP 5' UTR mRNA reporter, plate reader. inhibition, % (no concentration beside the values). 0.35% of 340,000 active. AID 488862, 2010;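 active means every replicate at 50% or more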;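 further: 0 = median of the neutral control wells; tested in H4 reporter cells; numbers are from one replicate; inactives centre near -14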
# RN4220 kill – growth inhibition of S. aureus RN4220, primary screen, OD600; 0.33% of 330,000 active; inhibition, % (test concentration not listed); 16 h; AID 1259311, 2017;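 active means z-score of -3 or lower and OD600 up to 0.18 on both plates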;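 further: plate controls were untreated cells for no effect and reference antibiotic for full effect; stock transfer was 100 nL into about 80 µL; one replicate is shown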
# Mtb hypoxia inh growth – further read-out of Mtb hypoxia inh, marked with its call; growth inhibition, %; measured here: M. tuberculosis growth (absorbance);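 0% = vehicle and 100% = reference antibiotic; read after six days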
# Numbers without * were called inactive; ? = inconclusive; . = no result given; & = joins results of further samples.
SMILES,Sa ugtP lethal,Mtb hypoxia inh,Mtb hypoxia inh growth,Autofluor counter,BJeLR viability,PrP UTR inh,RN4220 kill
O=C(O)CC(NCc1ccco1)C(=O)Nc1cccc(O)c1 (stereo not given),7,-1,6,4128,-13,-19,3.4
CC(Cc1ccccc1)NCCC(c1ccccc1)c1ccccc1 (stereo not given),-21,23,19,6213,.,-60,-7.3
CC(C)(C)CC(=O)Nc1nnc(C(F)(F)F)s1,9,4,2,3050,10,-20,8.8
O=C(Nc1ccc(F)cc1F)c1ccc(-n2cccn2)c([N+](=O)[O-])c1,-3,-1,9,3500,4,-39,-1.1
COc1ccccc1C(=O)NC(=O)COC(=O)/C(=C/c1ccccc1)NC(C)=O,3,4,-7,5206,-2,-19,3.6
CC1CN(c2ncnc3c2c(-c2ccccc2)cn3-c2ccc(F)cc2)CC(C)O1 (stereo not given),15,3,8,4345,-6,5,-5.1
CN(CC(=O)Nc1ccc(Cl)c(C(F)(F)F)c1)C(=O)c1ccc2c(c1)NC(=O)CS2,-14,-4,-3,2768,.,-3,-4.9
Cc1ccc2nc(Nc3nc(-c4ccccc4)cc(=O)[nH]3)nc(C)c2c1,-2,10,8,2582,7,-8,28
CN(C)CCNC(=O)C1CC(=O)N(c2ccc(F)c(Cl)c2)C1 (stereo not given),5,2,5,7961,10,-20,3.2
Oc1ccc(/C=N/Nc2cc(N3CCOCC3)nc(N3CCOCC3)n2)cc1O,.,.,.,2414,-2,-16,.
CC(C)N1CCN(Cc2nc3ccccc3s2)CC1CCO (stereo not given),7,11,2,3038,-1,-22,4.0
COc1ccc(C(=O)COC(=O)c2cnc(C)cn2)c(OC)c1,1,12,0,5861,0,-13,1.7
CCC(C)NC(=O)C(=O)NCc1ccncc1 (stereo not given),-7,-3,-3,9314,12,-22,-2.7
Cc1nc(N2CCOCC2)[nH]c(=O)c1C,1,10,6,4689,5,-32,6.5
Cc1ccc2nc(NC(=O)CN3C(=O)NC4(CCCC4)C3=O)sc2c1,-1,3,11,?,-1,-24,0.5
O=C(N/N=C\c1cccnc1)C1c2ccccc2Oc2ccccc21,.,.,.,2551,5,-5,.
CCOC(=O)c1c(C)oc2c1cc(O)c1ccccc12,-2,9,11,2420,4,-130,-3.8
CCOc1ccc(/C=C2\SC(=S)N(CCCC(=O)NCCCN3CCOCC3)C2=O)cc1,1,-7,15,3835,-14,81*,1.1
O=C(COC(=O)c1nc(Cl)ccc1Cl)NC1CCCCC1,4,10,2,4014,.,-10,-0.7
CON=Cc1ccc(N2CCN(C(=O)c3ccc(F)cc3)CC2)c([N+](=O)[O-])c1,2,7,21,.,.,.,8.7
O=C(COC(=O)CCc1ccc(S(=O)(=O)N2CCCCC2)cc1)Nc1cccc2ccccc12,-4,-2,-10,2613,-3,-76,-1.1
COc1ccc(C2(c3ccc(OC)cc3)NC(=O)N(CC(=O)Nc3cc(C)ccc3OC)C2=O)cc1,-4,2,5,5996,8,-9,-5.5
COc1ccccc1NC(=O)C(=O)NCc1ccncc1,5,-18,7,2716,-4,-13,0.9
CNCc1ccccc1Sc1cccc2ccccc12,-4,-6,-4,1976,10,-12,7.2
O=C(Nc1ccc(CN2CCOCC2)cc1)c1ccc(-c2ccc(Br)cc2)o1,-18,10,7,12996,1,-8,-9.0

# (cont.)
SMILES,Sa ugtP lethal,Mtb hypoxia inh,Mtb hypoxia inh growth,Autofluor counter,BJeLR viability,PrP UTR inh,RN4220 kill
O=Cc1c(C(=O)O)n(Cc2ccccc2Cl)c2ccccc12,4,16,-7,4353,-5,-12,3.0
COc1n[nH]c(C(=O)Nc2cc(Cl)ccc2Cl)c1[N+](=O)[O-],88*,7,-3,2174,10,4,90*
CCN(C1CCS(=O)(=O)C1)S(=O)(=O)c1ccc(Cl)s1 (stereo not given),10,-6,4,?,.,-15,3.4
Cc1c(C(=O)NN=Cc2ccccc2)sc(=S)n1C,-2,6,5,.,.,.,3.9
CCC(=O)Nc1ccc(Cl)c(NC(=O)c2cccnc2)c1,12,2,-11,10461,-2,3,-4.4
COc1ccc(Cc2n[nH]c(=O)c3ccccc23)cc1OC,-7,6,9,4166,-22,9,-0.2
O=C(Nc1cc(S(=O)(=O)N2CCCCC2)ccc1O)c1ccccc1NS(=O)(=O)c1ccc(F)cc1,7&11,6&0,-10&-2,3676&2408,-2,-105&-2,9.0&12
Cc1ccc(CN2CCN(Cc3cccc(C)n3)CC2CCO)cc1 (stereo not given),17,13,2,2964,-6,-15,2.4
CCN(CC)C(=O)CSc1nc2cc3c(cc2c(=O)n1CCCC(=O)NCc1ccc(OC)cc1)OCO3,-57,-4,4,3718,8,-6,12
CCCc1cc(=O)[nH]c(SCc2ccccc2)n1,-4,11,7,2965,-11,5,9.1
COc1cccc(NC(=S)NNC(=O)c2ccccc2OC(F)F)c1,-2,4,2,11121,-20,-2,3.5
CN(C(=O)C1CCN(c2ncnc3c2nc2n3CCCCC2)CC1)C1CCCCC1,5,-4,13,5671,5,-15,3.0
CCOc1ccc(N2C(=O)CC(Sc3nc(C)cc(C)n3)C2=O)cc1 (stereo not given),6,-6,0,7600,8,-16,3.2
COc1ccc(CN(C)C(=O)c2ccc3ccccc3n2)cc1F,9,2,-10,6024,-5,-12,2.1
CCCOc1ccc(CNC(=O)CCC(=O)n2ncc3cc(C)ccc32)cc1,-2,1,6,5218,4,-17,2.0
Cc1nn(-c2ccccc2)c(C)c1C(=O)NCCc1ccccc1,5,5,0,2911,0,-37,0.5
COc1ccc(CC(=O)N2CCN(C(=O)Cc3ccc(OC)cc3)CC2)cc1,3,.,.,5477,1,-15,-1.0
C[C@]12c3[nH]c4ccc(Cl)cc4c3CCN1C(=O)[C@@H](CC(=O)NCCC1=CCCCC1)C[C@@H]2C(=O)N1CCCCC1,-3,-1,5,3666,.,-69,4.4
CCOCCCNC(=O)C1(O)c2cc(Br)ccc2NC(=O)N1c1ccc(C)c(C)c1 (stereo not given),3,6,5,3903,-3,-8,-0.1
Cc1cccc(C(=O)N2CCN(S(=O)(=O)c3ccc4c(c3)OCCCO4)CC2)c1[N+](=O)[O-],4,6,-14,5875,-1,3,3.9
O=C(NCCN1C(=O)S/C(=C/c2cccnc2)C1=O)c1cccs1,-4,2,8,3989,.,-23,0.4
Cc1nc2ccc(NC(=O)N(C(C)C)C(C)C)cc2s1,-6,6,10,5894,0,-23,-0.8
CCCCCCCSc1nnc(-c2ccccc2N)c(=O)[nH]1,.,.,.,4833,-4,-19,.
CC(OC(=O)c1cc2ccccc2o1)C(=O)Nc1ccc(N2CCOCC2)cc1 (stereo not given),6,4,-1,6402,.,-18,2.4
S=c1[nH]nc(COc2ccccc2)n1N=C/C=C/c1ccco1,3,6,12,.,.,.,4.5

# Next section
SMILES,Sa ugtP lethal,Mtb hypoxia inh,Mtb hypoxia inh growth,Autofluor counter,BJeLR viability,PrP UTR inh,RN4220 kill
NC(=O)c1snnc1-c1ccccc1,-2,-13,-5,.,-3,-5,2.4
CCOc1ccc(NC(=O)CSc2ccccc2N)cc1,11,9,7,4510,-12,-13,4.9
O=C(N/N=C/c1ccc(OCC(=O)N2CCOCC2)cc1)c1ccccc1Cl,.,.,.,4624,-1,-25,.
CCc1ccccc1NC(=S)N(Cc1ccc(C(=O)O)cc1)Cc1ccc(OC)c(OC)c1,2,15,3,3332,4,-9,3.2
CCC(=O)Nc1cc(-c2nn3c(C)nnc3s2)ccc1C,2,7,9,3742,3,-19,2.2
Cc1ccc(NC(=O)NC2=NN(c3ccccc3)C(=O)/C2=C2/CCCN2C)cc1,9,2,4,4291,1,-21,3.4
CC1(C)CC(=O)C(C=NCC2CCN(C(=O)Nc3ccc(Cl)c(Cl)c3)CC2)=C(O)C1,2,.,.,2781,-10,-41,0.4
O=C(Cn1c(=O)oc2cc(S(=O)(=O)N3CCCCC3)ccc21)N1CCCCC1,5,-5,-5,.,2,-15,1.0
c1ccc(Nc2ncnc3sccc23)cc1,-2,0,1,4898,-6,-11,4.5
OC(C#CCN1CCCC1)(c1ccccc1)c1cccc(F)c1 (stereo not given),4,-1,10,2119,6,-5,1.7
CCn1nnc(-c2ccccc2NC(=O)c2ccc(-n3cnnn3)cc2)n1,8,7,-4,7181,-6,-11,6.4
CNC(=O)C(=O)NCC1OCCN1S(=O)(=O)c1ccc(C)cc1 (stereo not given),10,15,2,6117,-16,-21,3.7
CCCOC(=O)C1=C(C)NC2=C(C(=O)CCC2)C1c1ccc(N(C)C)cc1 (stereo not given),-3,.,.,4853,-3,-16,-1.6
Cc1cc(NC(=O)CCC(=O)N(CC(=O)NC2CCCC2)Cc2ccc3c(c2)OCO3)no1,6,6,-6,2426,-10,-13,3.5
NC(=O)CSCc1cccc(Br)c1,-6,-3,1,3688,-12,-6,-1.9
CCC(C)Sc1nnc(CSc2nc(C)cc(C)n2)n1C (stereo not given),2,10,4,4106,2,4,2.4
COc1ccc(-c2c(-c3cccc(C)c3)oc3ccc(-c4ccc5c(c4)OCO5)cc23)cn1,15,10,4,2797,5,-1,-3.7
CN(C)C(=O)CCc1ccc2c3c([nH]c2c1)[C@]1(CCC2CCCC2)[C@@H](C(=O)N2CCOCC2)C[C@H](CC(=O)NCc2cccc(C(F)(F)F)c2)C(=O)N1CC3,-6,-10,8,3612,.,2,-9.3
CC(Cn1nnc([N+](=O)[O-])n1)=NNC(=O)c1ccc(C)cc1,76,-4,-6,.,.,.,17
CCn1c(CC(=O)Nc2ccc(C)cc2)nnc1SCC(=O)N1CCOCC1,0,4,9,5494,-7,-18,0.1
CC1=C(C(N)=O)C(c2cccs2)NC(=S)N1 (stereo not given),8,0,6,4875,6,-11,4.7
CCCN1CCC(=O)N([C@H](CO)CC(C)C)CC1,.,.,.,4433,3,-28,.
CCN(CC)S(=O)(=O)c1cc(NC(=O)CNc2cccc(S(=O)(=O)N3CCCC3)c2)ccc1C,1,7,1,?,7,-16,3.7
O=C1Cc2ccccc2C(c2ccc(Cl)cc2)N1 (stereo not given),3,-8,2,4729,4,-8,3.1
CCc1nc2ccc(C(=O)Nc3ccc4c(c3)OCO4)cc2nc1CC,4,11,4,4282,.,-22,3.0

# Later entries.
SMILES,Sa ugtP lethal,Mtb hypoxia inh,Mtb hypoxia inh growth,Autofluor counter,BJeLR viability,PrP UTR inh,RN4220 kill
CCN1CCN(c2ccc(S(=O)(=O)N3CCOCC3)cc2NC(=O)C2CCC(C(C)(C)C)CC2)CC1 (stereo not given),2,6,13,3533,.,-2,3.6
CCN(C(=O)c1sc(N)c(C#N)c1C)C1CCCCC1,-5,9,9,2903,-2,-24,-12
CN(C)Cc1c(O)ccc2c1O/C(=C\C=C\c1ccccc1)C2=O,2,10,12,4293,15,3,2.1
Cc1ccc(N2C(=O)N(CC(=O)N3CCOCC3)C(=O)C2C)cc1 (stereo not given),1,19,9,4022,-6,-24,3.1
CCOC1OC(C(=O)N2CCN(Cc3ccc4c(c3)OCO4)CC2)=CC(C(C)(C)C)C1CCCO (stereo not given),3,4,3,.,.,.,5.1
S=c1[nH]nc(-c2cc(-c3ccccc3)n[nH]2)n1/N=C/c1ccccc1,.,.,.,5418,7,-17,.
CN=c1scc(-c2ccco2)n1N=Cc1ccc(O)c(O)c1,-1,7,-1,.,.,.,17
COc1ccc(NS(=O)(=O)c2cc(NC(=O)COc3ccccc3F)ccc2OC)cc1,-7,-2,-6,2840,.,-7,-0.4
COc1c([N+](=O)[O-])c(=O)oc2ccccc12,0,1,4,8910,6,-13,4.0
COc1ccc(N2CCN(CCCNC(=O)c3ccc(CS(=O)(=O)c4ccc(Cl)cc4)o3)CC2)cc1,3,3,5,4272,-8,-4,0.6

# Structures above that contain a CF3 group (three):
SMILES,Sa ugtP lethal,Mtb hypoxia inh,Mtb hypoxia inh growth,Autofluor counter,BJeLR viability,PrP UTR inh,RN4220 kill
CC(C)(C)CC(=O)Nc1nnc(C(F)(F)F)s1,9,4,2,3050,10,-20,8.8
CN(CC(=O)Nc1ccc(Cl)c(C(F)(F)F)c1)C(=O)c1ccc2c(c1)NC(=O)CS2,-14,-4,-3,2768,.,-3,-4.9
CN(C)C(=O)CCc1ccc2c3c([nH]c2c1)[C@]1(CCC2CCCC2)[C@@H](C(=O)N2CCOCC2)C[C@H](CC(=O)NCc2cccc(C(F)(F)F)c2)C(=O)N1CC3,-6,-10,8,3612,.,2,-9.3
